# Compound activity as filed in PubChem.
# Autofluor counter: flagged as autofluorescent in microsphere protease counterscreen; compound autofluorescence counterscreen, microsphere flow cytometry; stronger effect = higher value; fluorescence intensity (concentration not given with the values); actives 3.1% (n = 360,000); AID 624483;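 active = at least 3 SD above the mean of all compounds, about 16000 in these data; inconclusive = too few beads counted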;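 also: 100 nL of 1 mM stock went into each well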
# BJeLR lethal: kills HRASV12-expressing BJeLR cells; BJeLR (HRASV12) viability, CellTiter-Glo ATP luminescence, 48 h; reference of the scale not given here; inhibition, % (no concentration beside the values); actives 0.17% (n = 300,000); AID 1554;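 active = replicate mean above 50%; inconclusive = above 50% but judged a plate artefact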;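 also: 50 nL library stock added to about 25 µL; numbers are from one replicate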
# ugtP null kill: compounds lethal to S. aureus RN4220 ugtP deletion mutant; growth inhibition, % (test concentration not listed); actives 0.54% (n = 330,000); OD600 growth, 16 h; some inactives read as strong as hits;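 active = z-score under -3 and OD600 up to 0.15 on both plates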;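 also: plate controls were untreated wells for no effect and antibiotic for full effect; wells of about 80 µL received 100 nL stock; the first replicate is given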
# RN4220 kill: kills Staphylococcus aureus RN4220 | actives 0.33% (n = 330,000) | S. aureus RN4220 growth, OD600, 16 h | inhibition, % (concentration not given with the values);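 active = z-score of -3 or lower and OD600 up to 0.18 on both plates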;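 also: plate controls were untreated cells for no effect and reference antibiotic for full effect; stock transfer was 100 nL into about 80 µL; one replicate is shown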
# PrP UTR inh: suppresses PrP 5' UTR mRNA reporter expression; actives 0.35% (n = 340,000); inhibition, % (concentration not given with the values); cell-based PrP 5' UTR mRNA reporter, plate reader; AID 488862;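 active = every replicate at 50% or more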;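 also: 0 = median of the neutral control wells; tested in H4 reporter cells; numbers are from one replicate; inactives centre near -14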
# Mtb hypoxia rep: inhibitors of hypoxia-regulated fluorescent reporter in Mycobacterium tuberculosis; fluorescence inhibition, % (no concentration beside the values); M. tuberculosis hypoxia-regulated fluorescent reporter, fluorescence; actives 0.1% (n = 300,000);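 active = 35 to 45% if threefold the growth effect, above 45% if 1.5-fold the growth effect; inactive = the rest, general growth blockers included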;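 also: wells of about 50 µL received 100 nL stock; 0% = vehicle wells and 100% = reference inhibitor wells; whole bacteria with a GFP reporter of the hypoxia response; strong numbers were not always called active; many hits fall short of the cut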
# Mtb hypoxia rep growth: recorded beside Mtb hypoxia rep, whose call it bears; growth inhibition, %; measured here: M. tuberculosis growth (absorbance);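 0% = vehicle and 100% = reference antibiotic; read after six days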
# Starred values were filed as active, the others as inactive; ? = inconclusive; · = no result given.
SMILES,Autofluor counter,BJeLR lethal,ugtP null kill,RN4220 kill,PrP UTR inh,Mtb hypoxia rep,Mtb hypoxia rep growth
Cc1ccccc1Nc1nc(N)nc(COC(=O)c2ccc(O)cc2)n1,2099,-3,6,3.6,-19,7,7
c1ccc(-c2ccccc2OCCN2CCCC2)cc1,4394,0,2,3.2,-26,15,9
CCCC(C)CC1(CCO)C(=O)NC(=S)NC1=O (stereo not given),3780,·,1,2.2,-18,18,8
CNCC1Oc2c(NS(=O)(=O)c3ccc(F)cc3)cccc2C(=O)N(C(C)CO)CC1C (stereo not given),·,·,2,5.1,·,13,10
COc1ccc2nc(NC(=O)c3ccc(-c4cccc([N+](=O)[O-])c4)o3)sc2c1,·,-18,-15,2.8,·,10,0
Cc1cc(C(=O)NNC(=O)c2ccc(F)cc2)c(C)s1,3125,·,1,5.7,-30,1,6
CSc1nc(N2CCOCC2)c2c(c1C#N)CC(C(C)C)OC2 (stereo not given),3585,-4,42,3.7,-3,0,-11
CC(C)(C)n1ncc2c(=O)n(Cc3c(Cl)cccc3Br)cnc21,4107,·,19,-5.1,-27,13,11
CCCCCCN1C=CC(=C/C=C(\C#N)C(=O)OCC)C=C1,24837*,-8,-9,-2.1,-7,-20,-2
NC(=O)Cn1c2[n+](c3ccccc31)CC(O)CS2 (stereo not given),3676,10,2,2.4,-10,6,4
Cc1ccccc1C(=O)NCCNC(=O)c1ccco1,2927,-14,0,2.4,-4,8,-7
O=C(NNC(=O)c1ccccc1F)c1ccc(-c2ccc(Cl)cc2)o1,?,1,0,2.3,-11,3,-4
CCOc1ccccc1NC(=O)C(NCC1(N2CCCCC2)CCCCC1)c1ccccc1 (stereo not given),4492,7,5,0.3,-31,4,7
CC(=O)c1ccc(OCCOc2ccc([N+](=O)[O-])cc2)cc1,4096,7,4,5.4,-19,0,-4
Cc1ccc(C(C#N)c2ccc(Cl)nn2)cc1 (stereo not given),3441,1,1,1.6,-14,-6,-7
Cc1ccc(N2CC(C(=O)OCC(=O)C(C)(C)C)CC2=O)cc1C (stereo not given),11208,·,-7,-0.5,-20,-11,10
CC1CCN(c2ncccc2C(=O)O)CC1,5898,0,-2,3.3,-15,1,7
Cc1ccc(NC(=O)CSc2nnc(-c3ccncc3)n2C)cc1S(=O)(=O)N1CCOCC1,3515,7,2,8.0,-10,-1,1
C=CCNC(=S)NNC(=O)C(CCC(C)C)CC(C)O (stereo not given),2490,6,-2,2.9,-8,·,·
CCOC(=O)CNC(=O)CNC(=O)c1ccc(OC(C)C)cc1,4544,2,-1,1.0,·,5,3
Cn1ccs/c1=N\S(=O)(=O)c1ccc(Br)cc1,2372,2,·,·,-12,·,·
Cc1cc(C)c(N(CC(=O)NC(C)(C)C)C(=O)CNC(=O)c2cccs2)c(C)c1,4728,-2,9,5.1,-22,1,-6
CCOC(=O)Cn1c(=S)[nH]c2c(oc3ccc(Cl)cc32)c1=O,4204,-1,22,30,-20,8,5
CC(C)(C)C(=O)Nc1ccc(NC(=O)c2ccco2)nc1,4392,-6,·,·,88*,·,·
Cc1ccc(S(=O)(=O)N2CCN(C(=O)COC(=O)c3ccc([N+](=O)[O-])o3)CC2)c(C)c1,·,·,5,6.3,·,16,9
CC(C)NS(=O)(=O)c1ccc(OCC(=O)Nc2ccccc2F)cc1,12450,3,-1,1.4,-32,10,5
O=C(Nc1ccccc1N1CCOCC1)c1ccc(F)c(S(=O)(=O)N2CCOCC2)c1,2866,·,4,5.8,-24,6,2
O=C(c1ccc(F)cc1)N1CCN(c2cnn(-c3ccccc3)c(=O)c2Cl)CC1,4627,12,6,4.5,-10,13,-4
CC(NCC(O)COc1ccc2ccccc2c1)c1ccccc1 (stereo not given),3841,-1,6,-7.8,-12,3,1
O=C1CCC(C(=O)Nc2cccc(C(F)(F)F)c2)N1 (stereo not given),8490,5,5,11,-16,11,4
CCOc1ccccc1N(CC(=O)Nc1ccccc1F)S(=O)(=O)c1ccccc1,3298,-4,3,5.3,-11,20,9
Cc1cccc(NC(=O)C(Cc2ccccc2)n2cccc2)c1 (stereo not given),6085,-1,6,0.0,-5,1,8
COc1ccccc1C(=O)COC(=O)c1nc2nc(C)cc(C)n2n1,6830,5,-2,-0.1,-19,-17,0
COC(=O)c1ccc(NCN2C(=O)C3C4CCC(C4)C3C2=O)cc1 (stereo not given),2669,0,13,3.6,-27,7,8
COc1ccc(S(=O)(=O)N(CCc2ccccc2)CC(=O)O)cc1Cl,10470,-12,1,1.3,8,3,14
Cc1cc(Nc2cccc(O)c2)c2ccccc2n1,·,2,3,5.6,·,0,-6
CO[C@@H]1O[C@@H]2COC(c3ccccc3)O[C@@H]2[C@@H](OC)[C@@H]1O (stereo not given in full),4466,-3,-1,1.8,20,·,·
CC(C)(C)n1nc2c(c1NC(=O)c1ccccc1)CS(=O)(=O)C2,3684,3,6,3.7,-32,14,4
COc1ccc(-n2c(SCCNCCO)nc3sc4c(c3c2=O)CCCC4)cc1,4250,-7,0,2.2,1,-1,2
CC(=O)Nc1ccc2c(c1)nc(CCN1CCN(C)CC1)n2C,4245,-3,8,2.9,-7,6,0

# Compound profiles, from the list above. Order of values: Autofluor counter	BJeLR lethal	ugtP null kill	RN4220 kill	PrP UTR inh	Mtb hypoxia rep	Mtb hypoxia rep growth
# Entry for `CCOC(=O)Cn1c(=S)[nH]c2c(oc3ccc(Cl)cc32)c1=O` = 4204	-1	22	30	-20	8	5
# Entry for `COC(=O)c1ccc(NCN2C(=O)C3C4CCC(C4)C3C2=O)cc1` (stereo not given) = 2669	0	13	3.6	-27	7	8
# Entry for `CC(C)NS(=O)(=O)c1ccc(OCC(=O)Nc2ccccc2F)cc1` = 12450	3	-1	1.4	-32	10	5
# Entry for `Cc1cc(Nc2cccc(O)c2)c2ccccc2n1` = ·	2	3	5.6	·	0	-6
# Entry for `CCOc1ccccc1N(CC(=O)Nc1ccccc1F)S(=O)(=O)c1ccccc1` = 3298	-4	3	5.3	-11	20	9

# (more compounds)
SMILES,Autofluor counter,BJeLR lethal,ugtP null kill,RN4220 kill,PrP UTR inh,Mtb hypoxia rep,Mtb hypoxia rep growth
COc1ccc(/C=C/C(=O)N(C)C2CCS(=O)(=O)C2)cc1OC (stereo not given),2513,1,0,-0.6,-27,10,1
CCCCCCc1nc(C(N)=O)c2[nH]c(=O)n(-c3ccc(OC)cc3OC)c2n1,4485,-10,1,2.5,9,-6,-2
CC(=O)C1C(=O)c2c(cccc2[N+](=O)[O-])C1=Nc1cccc(Cl)c1 (stereo not given),6154,2,10,4.2,-45,13,6
CCOC(=O)C(=O)N/N=C/c1ccco1,3648,-2,·,·,-77,·,·
O=C(COC(=O)/C=C/c1ccc(OC(F)F)cc1)NC(=O)NC1CCCCC1,3499,·,5,3.6,-23,9,-10
COc1cc2c(cc1NC(=O)COC(=O)C1CC(=O)N(Cc3ccco3)C1)oc1ccccc12 (stereo not given),2436,4,-5,4.1,-30,·,·
Cc1ccc2cc(CN(C(=O)c3ccco3)c3ccccc3C)c(=O)[nH]c2c1,2574,4,-7,6.4,-5,10,10
CC(C)(C)OC(=O)NCc1n[nH]c(=S)n1C1CC1,4448,-1,6,2.6,-30,22,7
CCOc1ccc(-c2nn[nH]n2)cc1OCC,4731,1,2,0.3,2,·,·
CCOC(=O)N1CCc2c(sc(NC(=O)C3COc4ccccc4O3)c2C(N)=O)C1 (stereo not given),5812,-1,-1,2.7,-26,-7,5
c1ccc(COCC2CCNCC2)cc1,3425,-12,0,2.5,-12,1,9
CCCC(NC(=O)Cc1c(C)c2c(cc(C)c3c(C)coc32)oc1=O)C(=O)O (stereo not given),4027,2,5,4.4,-26,11,-4
O=P(Nc1ccccc1)(Nc1ccccc1)Oc1ccc(Cl)cc1,23234*,0,-17,4.1,1,2,5
COc1ccc(N=C2NC(=O)S/C2=C\c2ccc(N(C)C)cc2)cc1,4322,-6,·,·,-18,·,·
O=C(c1ccc(CS(=O)Cc2cccc(Cl)c2)o1)N1CCN(C2CCCCC2)CC1 (stereo not given),4850,-19,95*,-3.1,-9,4,7
COc1ccc(-c2[nH]ncc2CN2CCN(Cc3cccs3)CC2)cc1F,·,-8,4,2.4,-4,-1,-3
Cc1cccc(-c2nc3ccccc3c(=O)n2NC(=O)c2cccs2)c1,7607,6,-3,14,-11,3,1
Cc1ccc(CN2CCN(/N=C/c3ccc(C(F)(F)F)cc3)CC2)cc1,2395,-8,·,·,-26,·,·
COCCn1c(SCc2ccc(Cl)cc2)nc2c1c(=O)[nH]c(=O)n2C,·,4,3,2.4,-6,-12,-7
CCCC(C(=O)NC1CCCCC1)N(Cc1ccco1)C(=O)CNS(=O)(=O)c1ccccc1 (stereo not given),2954,2,1,-1.8,-10,·,·
CC(=O)Oc1cc2c(cc1Cl)C(c1cccs1)CC1(CC(C)(C)NC(=S)N1)O2 (stereo not given),2512,0,-13,-4.3,-57,10,1
CC(=O)Nc1ccc(S(=O)(=O)NCCC(=O)OCC(=O)c2ccc(Br)cc2)cc1,?,2,3,1.3,-20,3,7
COc1cccc(/C(O)=C2/C(=O)C(=O)N(c3cc(C)on3)C2c2cccs2)c1 (stereo not given),4626,0,3,6.2,-11,·,·
N#C/C(=C\C1CC2C=CC1C2)c1nc2ccccc2[nH]1 (stereo not given),9186,1,-1,-2.4,-17,-3,5
COc1ccc(C(C)=NNC2=NCCN2)cc1Cl,·,·,4,3.1,·,7,4
CN1C(C)(C)CCCC1(C)C,6282,·,8,6.7,-18,4,4
Cc1ccccc1-n1c(=O)c(C#N)cc2c(=O)n3ccccc3nc21,21339*,-2,0,2.0,-9,4,6
Cc1ccc(C(=O)OCC(=O)NCc2ccc3c(c2)OCO3)s1,3103,8,-9,1.8,-33,-3,-8
C=C(C)COc1ccc(-c2[nH]ncc2-c2ccc(OC)c(OC)c2)c(O)c1,3162,48,·,·,-16,·,·
CC(=O)Nc1ccc(S(=O)(=O)N(C)CC(=O)NN=Cc2cccc(O)c2)cc1,·,·,0,2.0,·,4,2
COC(=O)N/N=C/c1cccc([N+](=O)[O-])c1,6688,-7,·,·,-23,·,·
CC(=O)c1cccc(NC(=O)COC(=O)c2cccs2)c1,2572,-3,4,4.1,-2,-1,-4
O=C(NCCSCc1ccco1)Nc1cccc(Cl)c1,11465,5,-12,-3.6,-55,1,8
Cc1[nH]c2ccccc2c1C(=O)C(=O)NC1CC1,5893,-14,2,1.7,-11,3,15
O=C(NCCS(=O)(=O)N1CCN(Cc2ccccc2)CC1)c1ccccc1,6642,3,0,-0.2,-7,6,2
Cc1ccnc(NC(=O)C2CCN(S(=O)(=O)c3c(C)c(C)cc(C)c3C)CC2)c1,4828,-7,11,5.5,-2,4,2
Cc1cccc(OCCCC(=O)NC(C)c2ccccc2)c1 (stereo not given),2530,3,-2,-3.4,-3,·,·
NC(=O)c1nn(-c2ccccc2)nc1N,3730,-5,2,-2.2,-18,1,-1
CCOC(=O)N1CCC(c2nc3ccccc3[nH]2)CC1,2322,-11,10,12,-7,·,·
CCC(=O)NN=C(C)CC(=O)Nc1ccc(Cl)cc1,·,·,5,3.5,·,6,6
Cc1ccccc1NC(=O)C1CC(=O)N(c2ccc3c4c(cccc24)CC3)C1 (stereo not given),9185,9,-6,-4.4,7,6,-2
CCNc1nc(NCC)nc(NN=Cc2ccccc2)n1,·,·,5,2.9,·,-3,-4
CN(C)C=Nc1cnc(C(=O)c2ccc(Cl)cc2)n1C,·,·,8,-3.8,·,5,-1
CCCCn1c(N)c(N(CCOC)C(=O)CCS(=O)(=O)c2ccc(Cl)cc2)c(=O)[nH]c1=O,?,-8,9,6.1,-23,0,-4
CCC(=NNC(=O)c1c(-c2ccccc2)noc1C)c1ccc(C)o1,·,·,5,2.3,·,8,5
COc1ccc(C2NC(=S)NC3=C2N2CCC3CC2)cc1 (stereo not given),3798,-8,7,5.0,-5,6,7
Cc1ccc(C)c(N2CC(C(=O)Nc3cc(C)on3)CC2=O)c1 (stereo not given),4153,6,11,3.0,-9,7,8

# Reprinted at random: 2 records from the list, in no set order.
SMILES,Autofluor counter,BJeLR lethal,ugtP null kill,RN4220 kill,PrP UTR inh,Mtb hypoxia rep,Mtb hypoxia rep growth
Cc1ccccc1NC(=O)C1CC(=O)N(c2ccc3c4c(cccc24)CC3)C1 (stereo not given),9185,9,-6,-4.4,7,6,-2
CCNc1nc(NCC)nc(NN=Cc2ccccc2)n1,·,·,5,2.9,·,-3,-4
